PrP 5UTR inh: inhibition of PrP 5' UTR reporter expression | cell-based PrP 5' UTR mRNA reporter, plate reader | inhibition, % (test concentration not listed) | 340,000 tested, 0.35% active;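 active = every replicate at 50% or more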;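 also: 0 = median of the neutral control wells; tested in H4 reporter cells; numbers are from one replicate; inactives centre near -14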
Bead autofluor: flagged as autofluorescent in microsphere protease counterscreen | 360,000 tested, 3.1% active | fluorescence intensity (test concentration not listed) | compound autofluorescence counterscreen, microsphere flow cytometry; hits give high values | AID 624483;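 active = at least 3 SD above the mean of all compounds, about 16000 in these data; inconclusive = too few beads counted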;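 also: 100 nL of 1 mM stock went into each well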
ugtP null kill: compounds lethal to S. aureus RN4220 ugtP deletion mutant. OD600 growth, 16 h; some inactives read as strong as hits. growth inhibition, % (concentration not given with the values). 330,000 tested, 0.54% active;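 active = z-score under -3 and OD600 up to 0.15 on both plates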;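 also: plate controls were untreated wells for no effect and antibiotic for full effect; wells of about 80 µL received 100 nL stock; the first replicate is given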
Mtb hypoxia rep: Mtb hypoxia fluorescent reporter inhibition | 300,000 tested, 0.1% active | fluorescence inhibition, % (test concentration not listed) | M. tuberculosis hypoxia-regulated fluorescent reporter, fluorescence;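 active = 35 to 45% if threefold the growth effect, above 45% if 1.5-fold the growth effect; inactive = the rest, general growth blockers included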;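 also: wells of about 50 µL received 100 nL stock; 0% = vehicle wells and 100% = reference inhibitor wells; whole bacteria with a GFP reporter of the hypoxia response; strong numbers were not always called active; many hits fall short of the cut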
BJeLR lethal: kills HRASV12-expressing BJeLR cells; inhibition, % (test concentration not listed); 300,000 tested, 0.17% active; BJeLR (HRASV12) viability, CellTiter-Glo ATP luminescence, 48 h; reference of the scale not given here;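 active = replicate mean above 50%; inconclusive = above 50% but judged a plate artefact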;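 also: 50 nL library stock added to about 25 µL; numbers are from one replicate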
Sa RN4220 lethal: S. aureus RN4220 growth inhibition; inhibition, % (test concentration not listed); AID 1259311; OD600, 16 h; 330,000 tested, 0.33% active;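 active = z-score of -3 or lower and OD600 up to 0.18 on both plates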;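 also: plate controls were untreated cells for no effect and reference antibiotic for full effect; stock transfer was 100 nL into about 80 µL; one replicate is shown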
Mtb hypoxia rep growth: further read-out of Mtb hypoxia rep, marked with its call; growth inhibition, %; measured here: M. tuberculosis growth (absorbance);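 0% = vehicle and 100% = reference antibiotic; read after six days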
* marks the source's active call; other numbers are inactive results; ? = inconclusive; nt = not tested or not shown; & = joins results of further samples. Hits appear at their usual frequency, and some 4% of all compounds hit somewhere here.

SMILES	PrP 5UTR inh	Bead autofluor	ugtP null kill	Mtb hypoxia rep	Mtb hypoxia rep growth	BJeLR lethal	Sa RN4220 lethal
N#CC1CCCc2c1[nH]c1ccc([N+](=O)[O-])cc21 (configuration not stated)	-7	nt	-3	3	6	-1	0.2
O=C1Nc2ccc(Br)cc2C1Cc1ccccc1F (configuration not stated)	-40	3675	-8	11	5	5	6.2
Cc1c(NC(=O)Nc2ccc(C#N)cc2)c(=O)n(-c2ccccc2)n1C	-1	3597	-4	8	7	-7	0.4
c1ccc(C2c3[nH]c4ccccc4c3CCN2Cc2cccn2-c2ccccn2)nc1 (configuration not stated)	-7	4329	0	-12	2	4	5.3
Cc1cccc(C(=O)Nc2ccc(N3CCN(c4ccc(C(F)(F)F)cn4)CC3)nc2)c1	-13	4705	9	-5	-1	-5	1.8
CC1CC[C@@]2(OC1)O[C@H]1CC3[C@@H]4C[C@@H](O)[C@@]5(O)C[C@@H](O)[C@H](O)C[C@]5(C)[C@H]4CC[C@]3(C)[C@H]1[C@@H]2C (some centres not stated)	-19	2729	5	-2	2	0	2.5
CC(C)c1[nH]nc2c1C(c1ccco1)C(C#N)=C(N)O2 (configuration not stated)	-18	3262	8	3	1	-5	-1.2
O=C(c1ccc(Cn2c(=S)[nH]c3ccc(N4CCOCC4)cc3c2=O)cc1)N1CCN(c2ccc(F)cc2)CC1	-14	3297	nt	nt	nt	4	nt
CC(C)(C)C(CN1CCCC1)OC(=O)c1ccccc1 (configuration not stated)	-23	3807	-1	18	13	2	-3.5
Cc1ccc(N(CCC#N)C(=O)CCl)cc1C	-42	2225	4	38*	23*	-3	6.6
CCOc1ccc(S(=O)(=O)N(CC)CC)cc1N	-27	3196	2	7	6	nt	2.4
CCC(C)Sc1ccc(C2N[C@@](C)(C(=O)OC)C3C(=O)N(CC)C(=O)C23)cc1 (some centres not stated)	nt	nt	4	18	16	nt	4.8
CCN(CC)CCCN=C1NC(c2cccc(C(F)(F)F)c2)C(C(=O)OC)=C(C)N1CC (configuration not stated)	nt	nt	1	6	3	nt	2.6
CC(=O)Nc1cccc(-c2csc(Nc3cccc(C)n3)n2)c1	-140	6985	1	11	5	2	8.8
CCCNC(=O)c1ccc(N2CCC3(CC2)CC(c2ccccc2)=NO3)c(NC(=O)c2ccccc2)c1	-15	4056	-5	8	8	10	4.6
Cc1cc(NC(=O)C(Cl)Cl)cc2c1OCO2	-14	4064	-1	18	6	nt	-0.6
O=C(COC(=O)C1(c2ccccc2F)CCCC1)NCc1ccc2c(c1)OCO2	-5	2050	7	14	8	10	5.9
O=C(N/N=C/c1ccc(-c2ccccc2Cl)o1)c1ccccc1	-32	2207	nt	nt	nt	-1	nt
CCCCn1c(SCC(=O)Nc2cc(C(F)(F)F)ccc2Cl)nnc1C(CC)N(C)C (configuration not stated)	-11	9716	8	5	4	-10	6.1
Cc1cccc(-c2nc(CSCC(=O)NCCCN3CCOCC3)c(C)o2)c1	-22	5835	3	5	12	2	4.3
Cc1c(C(=O)Nc2nc3ccccc3[nH]2)oc2ccccc12	-148	2504	-19	-6	-8	-6	6.0
c1ccc(Oc2cccc(OCCn3cncn3)c2)cc1	-9	4323	2	4	2	5	-0.2
Cc1cc(C)c(S(=O)(=O)N2CCOC2CNC(=O)C(=O)NCCc2ccc(S(N)(=O)=O)cc2)c(C)c1 (configuration not stated)	16	4241	-6	-8	4	-8	3.9
CCOC(=O)c1ccccc1NC(=O)CSc1nnc(Cc2cccn2C)n1-c1ccc(F)cc1	-38	23284*	-20	6	8	-4	6.3
O=S(=O)(c1ccc(Br)cc1)N1CCCN(Cc2cccc(F)c2)CC1	-26	2265	-11	9	7	0	3.0
CN(CC(=O)Nc1cccc(F)c1)C(=O)c1ccccc1-n1cnnn1	10	?	4	-2	-4	nt	1.0
CC(C)(C)OC(=O)NC1CONC1=O (configuration not stated)	-12	2000	12	-7	3	-2	14
COc1ccc2ccccc2c1C=NNC(=O)c1cccc(Br)c1	nt	nt	4	6	7	nt	6.9
COc1ccc2c(c1OC)C(=O)N1C2SC[C@H]1C(=O)NC1CCCCC1 (some centres not stated)	-4	5258	6	nt	nt	10	1.1
CCOCCCNC(=O)COc1ccc(OC)cc1	-6	7765	6	-89	-15	-5	3.2
CC1CN(S(=O)(=O)c2cccc(C(=O)OCC(=O)N3CCCCCC3)c2)CC(C)O1 (configuration not stated)	-23	4232	-4	-2	-18	nt	-2.9
COC(=O)c1ccc(Nc2cc(C)nc3ccccc23)cc1	-13	3342	3	0	2	1	0.7
CCOC(=O)c1c2c(c(=S)n(-c3ccccc3)c1N)CCC2	-75	7255	-15	8	1	-1	-1.1
CC(NC(=O)C(c1ccccc1)c1ccccc1)C(=O)N1CCCCC1 (configuration not stated)	-10	3271	5	14	12	-2	2.2
CC1Cc2nc(SCC(=O)Nc3ccc(F)cc3)n(C)c(=O)c2S1 (configuration not stated)	-6	2308	5	nt	nt	4	1.5
Fc1ccc(-n2nnc(-c3nccs3)n2)cc1	-31	3300	4	16	7	-3	7.1
CC(C)N1C(=O)CSC1c1ccc(Br)cc1 (configuration not stated)	-25	2612	-1	-6	-1	0	-3.5
CCOC(=O)C1=C(C)Nc2nc(SCC)[nH]c(=O)c2C1c1ccncc1 (configuration not stated)	-21	3420	-4	7	2	4	-2.4
O=C1NC(=O)N(Cc2ccco2)C(=O)/C1=C/c1ccc(-c2cccc([N+](=O)[O-])c2)o1	3	2066	-8	1	12	nt	1.2
CC1=C(C(=O)OCc2ccccc2)C(c2ccc(C(F)(F)F)cc2)NC(=O)N1CCCCCC(=O)O (configuration not stated)	-17	3585	-8	5	9	-18	9.0

A draw from above in order of number of heavy atoms, lowest first.
SMILES	PrP 5UTR inh	Bead autofluor	ugtP null kill	Mtb hypoxia rep	Mtb hypoxia rep growth	BJeLR lethal	Sa RN4220 lethal
CC(C)(C)OC(=O)NC1CONC1=O (configuration not stated)	-12	2000	12	-7	3	-2	14
COc1ccc2ccccc2c1C=NNC(=O)c1cccc(Br)c1	nt	nt	4	6	7	nt	6.9
CCOC(=O)C1=C(C)Nc2nc(SCC)[nH]c(=O)c2C1c1ccncc1 (configuration not stated)	-21	3420	-4	7	2	4	-2.4

Continuation:
SMILES	PrP 5UTR inh	Bead autofluor	ugtP null kill	Mtb hypoxia rep	Mtb hypoxia rep growth	BJeLR lethal	Sa RN4220 lethal
CCC(C)NC(=O)C1CCC(=O)N1Cc1ccc(C)cc1 (configuration not stated)	-12	2965	2	8	7	0	5.9
Cc1ccsc1-c1nc(CN2CCN(C)C(=O)[C@@H]2C)c(C)o1	-15	3341	8	8	10	-5	1.7
COc1cccc(Nc2nnc(SCC3CCCCO3)s2)c1 (configuration not stated)	43	4261	-4	14	10	-19	3.0
NC(=O)c1cc(-c2ccccc2)nc(N2CCOCC2)n1	-22	3963	-5	nt	nt	4	1.4
O=[N+]([O-])c1cccc(CN2CCN(Cc3ccc(Cl)cc3)CC2)c1	-5	4610	1	4	4	2	4.0
O=c1oc2c(CN3CCOCC3)c(O)c(Cl)cc2c2c1CCCC2	-9	2512	16	4	2	0	20
C=CCN(CC(=O)NC1CC1)S(=O)(=O)c1cccc(C(F)(F)F)c1	-13	3994	0	6	10	nt	2.9
Cc1ccc(Sc2cc(C(F)(F)F)nc(N(C)C)n2)cc1	-8	6174	56	5	-4	-1	-0.7
Cc1cccc(-c2cc(C(=O)Nc3ccc4c(c3)OCCO4)c3ccccc3n2)c1	3	4633	1	nt	nt	6	-1.9
CCOC(=O)C1=C2c3ccc4ccccc4c3CC(C)(C)N2C(=O)C1=O	-9	2526	15	4	9	9	-2.5
CCC(NC(=S)NC1CCCCC1)c1ccc(C)cc1 (configuration not stated)	-17	5952	nt	nt	nt	0	nt
COc1cc(C=NNC(=O)CN2CCOCC2)ccc1OCc1ccccc1	nt	nt	5	10	-1	nt	1.6
CC(OC(=O)C1CCN(S(=O)(=O)c2ccc(Cl)cc2)CC1)C(=O)N1CCc2ccccc21 (configuration not stated)	-30	2917	-3	nt	nt	-6	-2.1
Cc1c([N+](=O)[O-])cc(C(=O)Nc2ccc(Cc3ccncc3)cc2)cc1[N+](=O)[O-]	4	2403	-2	1	4	-4	6.1
CC(=O)NN=C(C)c1ccc2c(c1)OCCO2	nt	nt	4	15	13	nt	0.4
Cc1cccc2nnc(-c3ccccc3)n12	-19	3521	2	12	11	nt	2.9
NC(=O)c1cc(S(=O)(=O)N2CCN(c3cccc(Cl)c3)CC2)cs1	-6	4001	-4	4	-7	-6	-0.8
CCCN(CCC)S(=O)(=O)c1ccc(C(=O)NCc2ccco2)cc1	-31	3557	3	-4	7	-1	-2.3
O=C(CSC(=S)N1CCCC1)c1ccccc1	-17	5119	12	nt	nt	-2	18
COc1ccc2c3c([nH]c2c1)C1CC2C(CC(O)C(OC)C2C(=O)O)CN1CC3 (configuration not stated)	-12	4413	0&9	-3	-1	4	5.5&3.1
CCCn1c(CN2CCN(C(=O)OCC)CC2)nc2cc(NC(=O)C(C)C)ccc21	-4	3059	4	-3	-6	-9	5.2
Cc1ccc(Oc2ccc(-c3nc(N)nc(N)n3)cc2)cc1	-23	4653	13	nt	nt	nt	1.9
O=C(CN1C(=O)CSC1=O)NC1CCCCC1	-26	7404	3	2	2	-14	1.8
N#Cc1ccccc1OCC(O)CS(=O)(=O)c1ccccc1 (configuration not stated)	-6	3080	-6	8	0	5	5.5
COCCCn1c(C)nc2c(c1=O)c1nc3ccccc3nc1n2CCc1ccccc1	-25	nt	-4	14	1	-4	-0.9
Cn1cncc1C(=O)c1ccccc1	-13	3545	8	7	1	4	1.4
O=C(CCn1c(=O)c2cccn2c2ccc(F)cc21)NCCc1ccccc1	-14	4340	0	7	-2	-7	-0.6
Cc1ccc(S(=O)(=O)Nc2c(NC3CCCCC3)c3ccccc3oc2=O)c(C)c1	-14	5339	-8	-6	1	2	-1.9
COC(=O)c1ccc(C(=O)OC)c(NC(=O)CSc2nc(-c3ccco3)cc(C(F)(F)F)n2)c1	-18	3297	-7	11	7	nt	-9.6
O=C(N/N=C/c1cc(Br)c(O)c(Br)c1O)c1ccc2c(c1)OCCO2	-16	5756	nt	nt	nt	11	nt
N#Cc1ccc(S(=O)(=O)N2CCC(N3CCCCC3)CC2)cc1	-1	4182	7	13	4	1	1.1
CCOC(=O)c1c(C)c(C(=O)NCc2cccnc2)c(C)n1CC	3	20195*	-2	8	9	1	4.1
Cc1ccc2nc(NCCCO)nc(-c3ccccc3)c2c1	-11	5540	6	nt	nt	-4	-0.9
COc1ccc(S(=O)(=O)Nc2ccc3c(c2)C(=O)N([C@H](C)CO)C[C@H](C)[C@H](CN(C)Cc2ccc(C(=O)O)cc2)O3)cc1	-14	3733	-12	2	8	nt	-15
Cc1c(-c2ccc(F)cc2)nc(N)c(C#N)c1-c1cccnc1	nt	nt	-3	4	7	-5	1.7
COc1ccc2nc(C)cc(NCc3cccc(C(F)(F)F)c3)c2c1	-25	3841	-14	11	6	9	-5.5
COc1nc(Cl)cn(-c2ccc(C)cc2)c1=O	-40	2076	0	3	5	-10	8.6
CCOC(=O)C1=C(N)OC2=C(C(=O)CC(C)(C)C2)C1c1cccs1 (configuration not stated)	-8	3151	1	-4	8	-8	2.8
CCC(=O)Nc1ccc(NC(=O)c2ccccn2)cn1	-45	4727	7	nt	nt	13	0.3
CN(C)CCCNc1cc(Cl)c(S(=O)(=O)N2CCCCC2)cc1C(=O)O	-2	5693	8	9	3	nt	0.2

Just BJeLR lethal and ugtP null kill, for three of the compounds above:
Structure	BJeLR lethal	ugtP null kill
COc1ccc2nc(C)cc(NCc3cccc(C(F)(F)F)c3)c2c1	9	-14
COc1nc(Cl)cn(-c2ccc(C)cc2)c1=O	-10	0
CCOC(=O)C1=C(N)OC2=C(C(=O)CC(C)(C)C2)C1c1cccs1 (configuration not stated)	-8	1

Continued.
SMILES	PrP 5UTR inh	Bead autofluor	ugtP null kill	Mtb hypoxia rep	Mtb hypoxia rep growth	BJeLR lethal	Sa RN4220 lethal
C/C(=N\Nc1nc2c(s1)CCCC2)c1ccc(Cl)cc1	6	7040	nt	nt	nt	-2	nt
CCN(CC)CCNC(=O)c1ccc(NC(=O)c2cn(-c3ccc(F)cc3)nc2-c2cccc(OC)c2)cc1	5	3976	-3	6	18	7	-4.1
COc1ccc(Cl)cc1C(=O)C1CCCN(CCO)C1 (configuration not stated)	-5	4798	7	9	-3	14	-0.4
CCN(CC)CCCNC(=O)N[C@@H](Cc1ccccc1)C(=O)O	-26	3416	0	10	1	-4	-6.2
CN(C(=O)COC(=O)c1cc2ccccc2oc1=O)C1CCCCC1	-8	3921	0	3	1	nt	4.3
